ClpP mod: qHTS Assay for Activators of ClpP | ATP-dependent Clp protease proteolytic subunit (Bacillus subtilis (strain 168)), P80244 | purified B. subtilis ClpP, FRET peptide cleavage, 20 min | Potency, µM (top dose mostly 57.5 µM), without a hit: at the top dose activity change, negative = active | 1.9% of 340,000 active; active = well fitted falling curve with a large enough effect; inconclusive = small, poorly fitted or top-dose-only effect; inactive = no such curve, though single readings can be large or run the other way; note: potency is the fitted concentration of half-maximal effect; the source files actives as falling curves though it sought activators and does not explain the sign; nearly all actives have a fitted effect of over 65% in size; many hits overshoot -100%
Target sequence (P80244 whole entry, looked up): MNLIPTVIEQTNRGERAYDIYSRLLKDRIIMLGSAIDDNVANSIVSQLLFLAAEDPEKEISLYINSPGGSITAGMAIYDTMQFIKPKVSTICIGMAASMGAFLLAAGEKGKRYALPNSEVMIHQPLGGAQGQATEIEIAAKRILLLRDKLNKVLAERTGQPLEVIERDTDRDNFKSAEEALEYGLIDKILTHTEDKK
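Purified B. subtilis ClpP, 10 microg/mL final in Tris/HCl pH8 with KCl, BSA, glycerol and Tween-20, cleaved an Abz/nitrotyrosine-quenched decapeptide. Fluorescence (ex 320, em 430) was read at 0 and 20 min at room temperature. Delta was normalized to 5.8 microM ADEP and DMSO/no-enzyme controls.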
D2 PAM: human D2 receptor positive allosteric modulation | P14416 | DiscoveRx D2 beta-arrestin cells, luminescence, 90 min; 100% = 57 uM dopamine signal | potentiation, % (concentration not given with the values) | 0.23% of 360,000 active | AID 624464; active = potentiation of 50% or more; inconclusive = 30% to 50%; inactive = 30% or less;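 note: compound concentration not given in the record; tested on top of an EC20 dose of dopamine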
Target sequence (P14416 whole entry, looked up): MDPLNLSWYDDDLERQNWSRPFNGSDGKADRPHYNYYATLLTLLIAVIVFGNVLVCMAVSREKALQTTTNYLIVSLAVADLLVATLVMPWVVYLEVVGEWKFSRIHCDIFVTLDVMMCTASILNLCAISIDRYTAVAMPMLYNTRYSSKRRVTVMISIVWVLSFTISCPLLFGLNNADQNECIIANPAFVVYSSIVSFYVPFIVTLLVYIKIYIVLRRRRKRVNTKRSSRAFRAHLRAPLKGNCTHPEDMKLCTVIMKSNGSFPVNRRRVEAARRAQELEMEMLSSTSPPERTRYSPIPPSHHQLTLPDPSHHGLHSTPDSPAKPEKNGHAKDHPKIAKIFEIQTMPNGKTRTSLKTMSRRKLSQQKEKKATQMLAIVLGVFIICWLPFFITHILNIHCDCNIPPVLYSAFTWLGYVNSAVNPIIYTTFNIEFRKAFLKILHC
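D2 cells co-treated with compound plus 50 nM dopamine (EC20) for 90 min at 37 deg C to detect potentiation. Beta-arrestin recruitment was read as enzyme-fragment luminescence after 1 h at ambient temperature. Full response was set by 57 uM dopamine.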
An asterisk follows results filed as active; ? = inconclusive. These rows are one share of the data, so the mix of outcomes need not match the whole.

Under each structure – ClpP mod	D2 PAM
Cc1ccc2ccccc2c1C(O)c1ncc(-c2ccccc2Cl)[nH]1 (centres undefined)
 : -8.7%	-6.6
CC(=O)NC(c1ccc(F)c(F)c1)c1nc(-c2ccccc2C)cs1 (centres undefined)
 : 0.0%	-12.8
COCCNC(=O)C1(C)CCCN(C(=O)c2cccnc2SC)C1 (centres undefined)
 : -0.9%	-5.8
CNc1ccc2ncc(-c3ccccc3NC(C)=O)n2n1
 : 4.4%	-3.0
Cc1ccc(Nc2nc(NCc3cccs3)nc3ccsc23)c(C)c1
 : ?	-14.2
CCC(=O)N1CCCC1(C)C(=O)Nc1ccc(OC(F)F)cc1 (centres undefined)
 : -2.3%	-4.9
CCCCN(C)c1c(C)nc2ccc(C(=O)NCc3ccc4c(c3)OCO4)cn12
 : -0.4%	-3.3
CCC1Cc2[nH]c(=S)[nH]c(=O)c2C(c2ccc(Cl)cc2)O1 (centres undefined)
 : -2.9%	-13.5
O=C(NCc1ccc(F)cc1)c1cc(C2CCCCN2S(=O)(=O)c2cccs2)on1 (centres undefined)
 : -0.6%	-4.9
CCC(=O)N1CCCC(C)(C(=O)NS(=O)(=O)c2ccccc2Cl)C1 (centres undefined)
 : 0.7%	-5.5
OCCN1CCN(c2ncnc3c2ncn3[C@H]2CN(Cc3ccccc3)C[C@@H](CO)O2)CC1
 : -5.2%	-1.8
CCCS(=O)(=O)NC(=O)C1(C)CCN(C(=O)c2cccc(C(F)(F)F)c2)C1 (centres undefined)
 : -2.5%	-8.9
CCCCNC(=O)C1(C)CCC(=O)N1CCc1c[nH]c2ccccc12 (centres undefined)
 : -6.8%	1.5
CC1(C(=O)Nc2ccc(Cl)c(Cl)c2)CCN1C(=O)C1CCCCC1 (centres undefined)
 : -2.5%	-10.3
CC(C)(C)c1ccccc1NC(=O)Nc1nc(C(N)Cc2ccc(F)cc2)cs1 (centres undefined)
 : -2.8%	-1.2
Cc1cccc(C)c1NC(=O)c1ccc2sc([C@H]3C[C@H](O)[C@@H](CO)O3)nc2c1
 : 2.8%	-12.5
CCOC1=C2[C@@H](CN(S(=O)(=O)c3ccc(C)cc3)[C@H]2c2ccccc2Cl)[C@H]2C(=O)N(Cc3ccccc3)C(=O)[C@H]2C1
 : -1.0%	-7.5
CCNC(=O)C1(C)CCN(C(=O)c2ccc3snnc3c2)C1 (centres undefined)
 : 0.3%	0.9
COCCNc1ncnc2c1ncn2[C@H]1CN(Cc2ccc(-c3ccccc3)cc2)C[C@@H](CO)O1
 : -0.6%	-4.0
CCOC1=C2[C@@H](CN(S(=O)(=O)c3ccc(C)cc3)[C@H]2c2ccccc2Cl)[C@H]2C(=O)NC(=O)[C@H]2C1
 : -0.2%	-6.7
Cc1c(C(=O)NCc2ccc(C#N)cc2)sc(=O)n1Cc1ccc(C(=O)N(C)C)cc1
 : 1.1%	-4.8
OC(c1ccccc1)(c1nc(-c2ccccc2)cs1)C(F)(F)F (centres undefined)
 : -2.3%	-2.9
CC1(C(=O)NCc2cccc(C(F)(F)F)c2)CCN1Cc1cc2ccccc2o1 (centres undefined)
 : -0.2%	-10.8
CCOC1=C2CN(S(=O)(=O)c3ccc(C)cc3)[C@H](c3ccccc3)C[C@@H]2N(S(=O)(=O)c2ccc(C)cc2)[C@H](c2cccs2)C1
 : -1.3%	-4.3
CCNC(=O)C1(C)CCCN(C(=O)CCc2cccs2)C1 (centres undefined)
 : -0.9%	-1.8
CC1(C)CC2(C)OC2C2(C1)N=NC(=Nc1ccccc1)O2 (centres undefined)
 : -0.4%	-2.6
O=C(Nc1nnc([C@H]2C[C@H](O)[C@@H](CO)O2)s1)Nc1ccc(F)cc1F
 : -3.6%	-8.8
NC(c1ccc(F)c(F)c1)c1nc(-c2cncnc2)cs1 (centres undefined)
 : 2.5%	-1.7
CC1(C(=O)Nc2ccc3c(c2)OCO3)CCN1C(=O)Cc1cccc2ccccc12 (centres undefined)
 : 0.5%	-6.6
COc1ccc(C(=O)N2CCCCC2c2cc(C(=O)NCc3ccc(Cl)c(Cl)c3)no2)cc1 (centres undefined)
 : -3.0%	-5.7
CCCCc1ccc(S(=O)(=O)NC(=O)C2(C)CCN2C(=O)CCc2cccs2)cc1 (centres undefined)
 : -0.2%	4.5
COc1ccccc1Cc1c(-c2ccc(F)cc2)nc2ccc(Br)cn12
 : -12.4%	-8.9
CN1CCN(C(=O)c2cccc(-c3ccc4nncn4c3)c2)CC1
 : -2.4%	0.3
COc1cccc(C(NC(C)=O)c2nc(-c3cccc(O)c3)cs2)c1 (centres undefined)
 : -13.9%	-8.7
CCOC(=O)C1=CCN(S(=O)(=O)c2ccccc2Br)C1c1ccccc1 (centres undefined)
 : 2.3%	-6.6
COc1ccccc1NC(=O)Nc1nc(C(N)C(C)C)cs1 (centres undefined)
 : 0.2%	-9.0
COc1cc2oc(=O)cc(CN3CCOCC3)c2cc1Cl
 : -16.7%	-2.8
Cn1c(NCCN2CCCC2)nc2cc(-c3cccc(C(F)(F)F)c3)sc2c1=O
 : -19.0%	10.4
CC(=O)c1cccc(-c2ccnc3c2CC(C(=O)NCCC(F)(F)F)O3)c1 (centres undefined)
 : 0.3%	-1.7
COc1ccccc1C(=O)N1CCN(C(=O)[C@H]2O[C@@H](n3ccc(=O)[nH]c3=O)[C@H](O)[C@@H]2O)CC1
 : 1.2%	-0.8

Part of the list above in a different format:
> CCC(=O)N1CCCC1(C)C(=O)Nc1ccc(OC(F)F)cc1 (centres undefined)
  ClpP mod: -2.3%; D2 PAM: -4.9

> CCCCN(C)c1c(C)nc2ccc(C(=O)NCc3ccc4c(c3)OCO4)cn12
  ClpP mod: -0.4%; D2 PAM: -3.3

Later entries:
Under each structure – ClpP mod	D2 PAM
COc1cc(-c2cnc3c(NC=O)cc(-c4cccnc4)cn23)cc(OC)c1OC
 : -10.3%	-2.3
CCCCN1CCCCC1(C)C(=O)NCc1ccc2c(c1)OCO2 (centres undefined)
 : 4.6%	-2.7
Nc1nc2c(ncn2[C@@H]2O[C@H](CNS(=O)(=O)c3cccnc3)[C@@H](O)[C@H]2O)c(=O)[nH]1
 : -1.2%	-7.2
O=C(NCCNC(=O)c1cccnc1)c1cccnc1
 : 0.4%	1.6
CNc1cncc(-c2ccc(F)cc2F)n1
 : 5.1%	-6.2
COc1ccc(CN2C[C@H]3CON(C)[C@H]3C[C@H]2c2ccc(-c3ccccc3)cc2)cc1
 : -14.1%	-6.6
Cc1ccc(-c2cnc3c(Nc4cccc(OC(F)(F)C(F)F)c4)nccn23)cc1
 : 4.6%	-5.7
CN(C)c1ccc(CN2CCC(C(=O)NC(c3ccc(Cl)cc3)c3cnccn3)CC2)cc1 (centres undefined)
 : -0.4%	-23.0
Cc1ccc(Cc2c(-c3ccc(C#N)cc3)nc3c(C)cc(Br)cn23)cc1
 : 15.7%	-2.5
CCOc1ccc(Cl)cc1-c1cc(C(=O)Nc2ccc(OC)cc2OC)[nH]n1
 : -13.8%	-7.3
Cc1ccc2c(CN3CCN(c4ccccc4F)CC3)cc(=O)oc2c1
 : -0.7%	-3.6
Cc1cc(O)ccc1-c1cc(C(=O)NCc2cc(C(F)(F)F)cc(C(F)(F)F)c2)[nH]n1
 : -2.4%	-4.5
C[C@H](CO)N1C[C@H](C)[C@@H](CN(C)Cc2ccncc2)OCCCC[C@H](C)Oc2ccc(NC(=O)CCCN(C)C)cc2C1=O
 : -8.3%	-9.1
CCc1ccc(C(O)c2ncc(-c3ccccc3Cl)[nH]2)cc1 (centres undefined)
 : 0.1%	-11.5
CCCCN(C)c1c(C)nc2ccc(C(=O)NCCOc3ccc(OC)cc3)cn12
 : -1.3%	-10.9
CC1(C(=O)NS(=O)(=O)c2cccc(C#N)c2)CCN1C(=O)c1ccco1 (centres undefined)
 : -6.7%	-6.0
CC(C)Oc1cccc(NC(=O)C2(C)CCCN(C)C2)c1 (centres undefined)
 : -0.7%	-11.5
O=C(O)c1ccc(CN2C[C@@H](CO)O[C@@H](n3cnc4c(NCc5ccc(F)cc5)ncnc43)C2)cc1
 : -0.2%	-8.9
Cn1c2c(c(=O)n(C)c1=O)CS(=O)c1ccccc1N2 (centres undefined)
 : -3.0%	-1.5
CC1(C(=O)Nc2ccc3c(c2)OCO3)CCN1C(=O)C1(c2ccc(Cl)cc2)CC1 (centres undefined)
 : 0.3%	-3.8

Sorted by the number under D2 PAM (low to high): 4 of the compounds above.
canonical_smiles | D2 PAM
CCc1ccc(C(O)c2ncc(-c3ccccc3Cl)[nH]2)cc1 (centres undefined) | -11.5
CCCCN(C)c1c(C)nc2ccc(C(=O)NCCOc3ccc(OC)cc3)cn12 | -10.9
Cc1cc(O)ccc1-c1cc(C(=O)NCc2cc(C(F)(F)F)cc(C(F)(F)F)c2)[nH]n1 | -4.5
Cc1ccc(Cc2c(-c3ccc(C#N)cc3)nc3c(C)cc(Br)cn23)cc1 | -2.5

Continued:
SMILES | ClpP mod | D2 PAM
COc1ccccc1CNC(=O)Nc1nc(C(N)Cc2ccc(Cl)cc2)cs1 (centres undefined) | -2.0% | -2.7
COc1ccc(NC(=O)c2cc(-c3cc(Cl)ccc3C)n[nH]2)cn1 | -6.6% | -11.8
COc1ccc(-c2csc(C(O)c3ccc(OC)cc3)n2)cc1 (centres undefined) | 0.0% | -5.0
CC(C)(C)Cc1c(-c2ccco2)nc2ccc(Cl)cn12 | -7.7% | -4.8
C[C@@H]1CN([C@H](C)CO)C(=O)CCCn2nncc2CO[C@H]1CN(C)CC1CC1 | 0.0% | -8.0
CCc1nc2ccc(C(=O)NCCc3c[nH]c4ccccc34)cn2c1N(C)Cc1ccc(N(C)C)cc1 | -3.6% | 3.1

3 entries from above, field by field:
C[C@@H]1CN([C@H](C)CO)C(=O)CCCn2nncc2CO[C@H]1CN(C)CC1CC1
  ClpP mod: 0.0% | D2 PAM: -8.0
CC(C)(C)Cc1c(-c2ccco2)nc2ccc(Cl)cn12
  ClpP mod: -7.7% | D2 PAM: -4.8
COc1ccc(-c2csc(C(O)c3ccc(OC)cc3)n2)cc1 (centres undefined)
  ClpP mod: 0.0% | D2 PAM: -5.0

From PubChem
